Compound activity as filed in PubChem BioAssay.
miR-21 reporter: miR-21 reporter, rising signal; HeLa miR-21 FLuc reporter, luciferase, 48 h; Potency, µM (series often up to 38.3 µM), inactives show at the top dose reporter change, positive = more light; 340,000 tested, under 10 active; AID 2288; active = well fitted rising curve with a large enough effect; inconclusive = small, poorly fitted or top-dose-only effect; inactive = no such curve, though single readings can be large or run the other way;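 also: % of control where 0% means no effect; miR-21 action dims this reporter so a rising signal means less miR-21 action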
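HeLa cells endogenously expressing miR-21, stably carrying CMV-driven firefly luciferase with a downstream miR-21 binding site, 2000 cells/well. Titrations up to approximately 40 uM, 48 hours; luciferase luminescence read.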
GLA inh pH 4.5: alpha-galactosidase A (human) inhibition, pH 4.5; P06280; purified enzyme, 4-MU-alpha-Gal fluorescence, pH 4.5; activity change, negative = inhibition, % at 105 µM; 230,000 tested, under 10 active; inconclusive = small, poorly fitted or top-dose-only inhibition, or a rising curve; inactive = flat fitted curve, though single readings scatter; no compound was filed as active;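 also: 0% = full activity with enzyme and -100% = basal without enzyme; dose as in the result columns while the protocol names 77 µM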
Rango release inh: prevents RanGTP from dissociating the Rango-importin beta complex | O95149+P62826 | Biochemical FRET Rango-importin beta, RanGTP-induced dissociation | Potency, µM (top dose mostly 46.1 µM), inactives show at the top dose activity change, negative = inhibition | actives 0.071% (n = 340,000); active means falling FRET ratio curve, often poorly fitted, with flat reads before Ran was added; inconclusive means other falling curves, or compound fluorescence or quenching; inactive means flat or rising ratio curve;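 also: potency is read from the fitted curve at half-maximal effect; % of control where 0% means no effect; nearly all actives have a fitted effect of over 45% in size; -100% = wells without RanGTP and RCC1; the record marks most hits as doubtful in a second field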
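Rango/importin beta premix (0.1/0.25 uM final), PBS + 1 mM DTT + 0.02% Tween-20 + 0.1% BSA; cpd 5 min RT; FRET pre-read; + RanGTP-RCC1 (0.6 uM Ran, 2 mM GTP, 0.2 uM RCC1); 45 min RT; FRET post-read, ex 430, em 486/530 nm.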
Rango complex inh: inhibitors of Rango-importin beta complex formation; Q14974; actives 0.031% (n = 340,000); Potency, µM (titrated, usually from 92.2 µM), for inactives: at the top dose inhibition of complex formation; Rango CFP/YFP FRET sensor + importin beta, 45 min; active = rising FRET ratio curve, often small or poorly fitted; inconclusive = mostly compound fluorescence or quenching in the first reads; inactive = flat curves in all reads;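 also: potency is read from the fitted curve at half-maximal effect; 0% = DMSO wells and 100% = buffer wells lacking importin beta; nearly all actives have a fitted effect of over 15% in size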
Target sequence (Q14974 whole entry, looked up): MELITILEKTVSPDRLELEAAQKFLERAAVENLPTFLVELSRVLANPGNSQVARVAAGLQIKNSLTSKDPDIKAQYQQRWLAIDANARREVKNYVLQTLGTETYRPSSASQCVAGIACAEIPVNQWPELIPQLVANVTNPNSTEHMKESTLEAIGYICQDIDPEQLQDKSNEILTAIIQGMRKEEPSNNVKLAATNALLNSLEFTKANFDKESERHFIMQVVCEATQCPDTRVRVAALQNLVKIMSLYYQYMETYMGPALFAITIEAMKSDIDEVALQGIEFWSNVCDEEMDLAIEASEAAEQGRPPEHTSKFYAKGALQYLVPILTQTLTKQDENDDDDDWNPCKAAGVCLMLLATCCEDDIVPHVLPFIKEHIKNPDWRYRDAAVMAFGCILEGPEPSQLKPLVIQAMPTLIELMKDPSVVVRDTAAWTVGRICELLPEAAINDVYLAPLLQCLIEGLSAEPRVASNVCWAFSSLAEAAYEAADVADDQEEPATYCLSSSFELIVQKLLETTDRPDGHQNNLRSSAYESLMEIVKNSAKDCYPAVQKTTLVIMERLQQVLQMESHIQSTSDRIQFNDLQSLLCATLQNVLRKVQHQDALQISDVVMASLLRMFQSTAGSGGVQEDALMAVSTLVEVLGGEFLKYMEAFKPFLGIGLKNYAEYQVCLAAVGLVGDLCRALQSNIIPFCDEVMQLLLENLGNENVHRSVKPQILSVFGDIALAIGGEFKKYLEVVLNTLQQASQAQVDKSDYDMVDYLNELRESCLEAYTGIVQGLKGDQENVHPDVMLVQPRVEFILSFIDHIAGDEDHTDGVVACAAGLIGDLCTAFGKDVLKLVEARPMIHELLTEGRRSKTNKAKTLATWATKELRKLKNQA
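Inhibition scored from the CFP 486 nm/YFP 530 nm FRET ratio 45 min after adding 0.125 microM importin beta to 50 nM Rango biosensor preincubated 5 min with compound (room temperature, PBS with DTT, Tween-20, BSA). No-importin wells as positive control.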
* = called active by the depositor; ? = inconclusive; · = no result given.

Every second line gives: miR-21 reporter, GLA inh pH 4.5, Rango release inh, Rango complex inh
CCOc1ccc(CN2CCN(Cc3[nH]c4ccccc4c3C)CC2CCO)cc1 (configuration not stated)
    3.3%, -2.8, 9.1%, -1.5%
S=c1nc(NCc2ccc3c(c2)OCO3)c2ccccc2[nH]1
    -5.7%, ·, -2.3%, 0.7%
Cc1nc(=O)c(-c2ccccc2)c(C)n1-c1ccccc1C(=O)O
    2.1%, 4.3, -5.0%, 0.5%
CCOc1ccc(N2CC(C(=O)Nc3nnc(Cc4ccc(OC)c(OC)c4)s3)CC2=O)cc1 (configuration not stated)
    0.1%, ·, -9.0%, -0.3%
COc1cccc(NC(=O)CN(C)C(=O)CNC(=O)c2sc3ccccc3c2Cl)c1
    ·, ·, -7.3%, -0.2%
COc1ccc(S(=O)(=O)N2CCOC2CNC(=O)C(=O)NCc2ccco2)cc1OC (configuration not stated)
    -7.6%, -1.9, 4.0%, 0.6%
COc1ccccc1CNC(=O)Cn1cccc1
    -7.5%, 4.8, -8.7%, -0.6%
Cn1c(Cc2ccccc2)nnc1SCC(=O)Nc1ccccc1
    -4.1%, 13.1, 22.0%, -1.5%
CN(CC(=O)NCc1ccccc1Cl)S(=O)(=O)c1ccc2c(c1)n(C)c(=O)c(=O)n2C
    -0.3%, ·, -3.2%, 1.1%
Cc1ccccc1S(=O)(=O)N1C[C@H]2CON(C)[C@H]2C[C@H]1c1cccc(N2CCOCC2)c1
    ·, ·, -6.9%, -2.7%
Cc1ccc(Cl)c(NC(=O)COC(=O)c2ccccc2C(=O)c2ccc(Cl)c([N+](=O)[O-])c2)c1Cl
    17.8%, 5.4, -10.8%, -5.3%
CC(C)CC1(C)NC(=O)N(CC(=O)Nc2ccccc2Br)C1=O (configuration not stated)
    ·, ·, -0.2%, 1.0%
O=C(NC(=S)Nc1cccc(Cl)c1N1CCCCC1)c1cccs1
    -7.7%, 3.5, -5.8%, 1.8%
COC(=O)c1cc(C(=O)OCC(=O)N2CCCCC2)cc([N+](=O)[O-])c1
    ·, ·, -1.4%, 0.4%
Fc1ccc(CSc2ccc3nnc(-c4cccs4)n3n2)cc1
    -7.2%, 0.8, 0.8%, 1.5%
Cc1ccc(C(=O)NCC(=O)OCC(=O)Nc2ccc3[nH]c(=O)[nH]c3c2)cc1
    ·, ·, 15.6%, -2.8%
CCOc1cc(/C=N/NC(=O)CCn2nnc3ccccc32)ccc1O
    0.9%, -3.8, -23.1%, -0.8%
CCOc1ccccc1-c1nc(-c2cc3ccc(C)cc3[nH]c2=O)no1
    -10.6%, -5.2, 1.0%, -1.4%
O=C(c1ccc(Cl)cc1)c1cnc(Nc2ccccc2)s1
    -12.2%, -0.6, -3.4%, 1.0%
O=C(CSc1nc(NS(=O)(=O)c2ccccc2)cc(=O)[nH]1)Nc1ccc(Cl)cc1
    -7.1%, -2.0, -3.0%, -4.1%
Cc1cc(C(=O)NCc2csc(-c3ccccc3)n2)no1
    -57.3%, ·, -0.7%, -1.1%
NC(=S)Nn1c(CCC(=O)O)ccc1-c1ccccc1
    -2.3%, -7.0, -13.1%, -1.0%
NNC(=S)Nc1ccccc1Cl
    -21.5%, 10.6, -9.2%, -2.4%
CC(C)(C)NC(=O)NC(=O)CN1CCN(C(c2ccccc2)c2ccccc2)CC1
    -2.1%, -5.7, 1.4%, -0.6%
CC(=O)N(C)C1(c2nnnn2CCOC(=O)Nc2cccc3ccccc23)CCCC1
    1.4%, 5.8, -12.3%, 8.7%
Cc1cccc(NC(=S)NNC(=O)c2ccco2)c1
    -34.5%, -1.0, -2.0%, -2.3%
CCOC(=O)c1cc(C)sc1NC(=O)CSc1nnnn1C
    -9.4%, ·, -2.4%, -0.5%
CC1(C)C2([N+](=O)[O-])CN(CCO)CC1([N+](=O)[O-])CN(CCO)C2
    -9.0%, 1.0, 2.1%, -5.2%
O=C(NC1CC1)C1=C[C@@H](c2ccc3c(c2)OCO3)C[C@@H](OCc2ccc(CO)cc2)O1
    -12.1%, 4.4, 1.6%, 2.7%
O=C(Nc1nc(-c2cc(Cl)sc2Cl)cs1)c1ccccc1
    -5.6%, 3.0, -5.4%, 0.3%
Cc1ccc(Sc2ccc(NC(=O)CCl)cc2)c(C)c1
    23.6%, 0.1, 0.0%, 0.2%
CCc1ccc(Nc2n[n+](-c3ccccc3)c(-c3c(Cl)cccc3Cl)s2)cc1
    ?, ·, -4.7%, ?
COc1ccccc1-c1nnc(-c2ccc(N3CCOCC3)cc2)o1
    -83.9%, 2.4, -22.8%, -2.2%
COc1cccc(C(=O)NCC(c2cccs2)N2CCc3ccccc32)c1 (configuration not stated)
    ·, ·, 1.6%, 1.0%
COc1cc2c(cc1OC)C(C)N(S(=O)(=O)c1cnc(Cl)c(Cl)c1)CC2 (configuration not stated)
    ?, ·, 36.8%, -0.1%
N#Cc1ccsc1NC(=O)CN1CCCCCC1
    -6.3%, 4.7, -4.1%, 10.0%
Cc1nc2ccc(Br)cn2c1NC(C)(C)C
    -10.1%, 1.2, 0.5%, 7.5%
CCOc1ccc(NC(=O)c2cccc3ccccc23)cc1
    -5.5%, ·, -7.8%, -2.8%
Cc1c(C(=O)NCCN(C)C)oc2ccc(S(=O)(=O)N3CCCC3)cc12
    -1.2%, ·, -0.1%, 0.5%
CCOC(=O)CSc1nc2cc(C(=O)N3CCC(C(N)=O)CC3)ccc2c(=O)n1-c1ccccc1
    -6.2%, ?, 5.2%, -0.5%
Cc1ccc(CCC(=O)Nc2nccs2)o1
    -9.7%, -9.7, 1.4%, -0.3%
COc1ccc(S(=O)(=O)n2nc(OC(=O)c3ccc(C)cc3)cc2N)cc1
    -4.7%, -0.1, 8.4%, 5.1%
Cc1cc(NC(=O)COC(=O)c2ccc(NS(=O)(=O)c3ccc(C)c(C)c3)cc2)no1
    -7.2%, 6.7, 14.6%, 3.7%
O=C(O)c1nccnc1C(=O)Nc1ccc(S(=O)(=O)N2CCOCC2)cc1
    -0.4%, 1.4, -15.9%, 1.2%
COC(=O)c1sccc1NC(=O)/C=C/c1ccc(Cl)cc1
    -17.9%, -4.5, -8.5%, 0.9%
Cc1ccc(NC(=O)c2ncn(CCCNCCCc3ccccc3)n2)cc1C
    ·, ·, -15.1%, -0.7%
Cc1cc(C(=O)CSc2nnc(N)s2)c(C)n1CCc1ccc(Cl)cc1
    9.4%, -2.2, 2.6%, 2.2%
CCN1CCN(c2cc(N3CCc4ccccc4C3)c(F)cc2[N+](=O)[O-])CC1
    13.4%, -8.1, 0.7%, 0.5%
O=C1c2ccccc2C(=O)N1CCCCN(C(=O)c1cccc([N+](=O)[O-])c1)c1ccc(Cl)cc1
    1.5%, 11.2, 11.4%, -0.6%
COc1ccc(NC(=O)CN2CCC(C)CC2)cc1
    -23.7%, 0.5, -12.4%, -0.1%

13 entries already listed, arranged by count of non-hydrogen atoms, highest first.
Every second line gives: miR-21 reporter, GLA inh pH 4.5, Rango release inh, Rango complex inh
CCOC(=O)CSc1nc2cc(C(=O)N3CCC(C(N)=O)CC3)ccc2c(=O)n1-c1ccccc1
    -6.2%, ?, 5.2%, -0.5%
O=C1c2ccccc2C(=O)N1CCCCN(C(=O)c1cccc([N+](=O)[O-])c1)c1ccc(Cl)cc1
    1.5%, 11.2, 11.4%, -0.6%
Cc1cc(NC(=O)COC(=O)c2ccc(NS(=O)(=O)c3ccc(C)c(C)c3)cc2)no1
    -7.2%, 6.7, 14.6%, 3.7%
Cc1ccc(NC(=O)c2ncn(CCCNCCCc3ccccc3)n2)cc1C
    ·, ·, -15.1%, -0.7%
CCN1CCN(c2cc(N3CCc4ccccc4C3)c(F)cc2[N+](=O)[O-])CC1
    13.4%, -8.1, 0.7%, 0.5%
COc1ccc(S(=O)(=O)n2nc(OC(=O)c3ccc(C)cc3)cc2N)cc1
    -4.7%, -0.1, 8.4%, 5.1%
COc1cc2c(cc1OC)C(C)N(S(=O)(=O)c1cnc(Cl)c(Cl)c1)CC2 (configuration not stated)
    ?, ·, 36.8%, -0.1%
COc1ccccc1-c1nnc(-c2ccc(N3CCOCC3)cc2)o1
    -83.9%, 2.4, -22.8%, -2.2%
CCOc1ccc(NC(=O)c2cccc3ccccc23)cc1
    -5.5%, ·, -7.8%, -2.8%
COC(=O)c1sccc1NC(=O)/C=C/c1ccc(Cl)cc1
    -17.9%, -4.5, -8.5%, 0.9%
COc1ccc(NC(=O)CN2CCC(C)CC2)cc1
    -23.7%, 0.5, -12.4%, -0.1%
N#Cc1ccsc1NC(=O)CN1CCCCCC1
    -6.3%, 4.7, -4.1%, 10.0%
Cc1ccc(CCC(=O)Nc2nccs2)o1
    -9.7%, -9.7, 1.4%, -0.3%

(list continues)
Every second line gives: miR-21 reporter, GLA inh pH 4.5, Rango release inh, Rango complex inh
CC1(C)NC(=O)N(CC(O)COc2ccccc2C(=O)Nc2ccccc2)C1=O (configuration not stated)
    2.3%, 0.0, 1.7%, -1.1%
COc1ccc(C(=O)NCCc2nnc(SCc3nc4ccccc4c(=O)[nH]3)n2C)cc1
    2.6%, -8.3, -4.6%, 0.2%
O=C(Nc1ccc(F)cc1)c1cccnn1
    -14.4%, ·, 20.8%, -0.2%
O=C(CSc1nc2ccccc2c(=O)n1NC(=O)Cc1ccccc1)NCc1ccccc1
    -5.0%, -6.8, 5.4%, -0.5%
Nc1ccccc1SCC(=O)N1CCc2ccccc21
    -39.5%, 3.5, -9.5%, -1.7%
Cc1cccc(CS(=O)(=O)Cc2ccc(C(=O)NCCN3CCCCC3C)o2)c1 (configuration not stated)
    -3.2%, -10.2, 8.2%, -2.4%
CCOC(=O)[C@H]1CCC[C@@H](NS(=O)(=O)c2ccc(NC(C)=O)cc2)C1
    -0.2%, 1.8, 13.1%, 3.6%
O=S(=O)(c1cc(Cl)ccc1Cl)N1CCc2ccccc21
    6.7%, ·, -11.7%, -0.6%
Cc1cc(C)c(S(=O)(=O)Nc2ccc(O)cc2)cc1C
    -9.6%, -3.7, -4.1%, -2.0%
C[C@@H](NCCCn1cnc2c(OCc3ccccc3)ncnc21)c1cccc2ccccc12
    ·, ·, -3.5%, 0.1%
CC(C)Nc1nc2ccccc2c(=O)[nH]1
    0.3%, -1.9, 2.6%, 0.1%
CC1=C(C(=O)OC2CCCC2)C(c2coc3ccccc3c2=O)C2=C(CCCC2=O)N1 (configuration not stated)
    2.7%, -3.1, -16.9%, ?
COc1ccccc1N1C(=O)CC(N2CCc3ccccc32)C1=O (configuration not stated)
    -6.2%, -17.6, -19.2%, -0.7%
O=C(O)CCn1c(=O)sc2ccccc21
    -0.9%, -1.5, 1.2%, 2.1%
C=CCNC(=O)c1ccc2c3n(nc2c1)-c1ccc(C)cc1CO3
    -21.9%, 3.3, 7.5%, 3.7%
N#CCc1c(C#N)c(N)nc(N2CCN(C=O)CC2)c1C#N
    -1.8%, 0.0, -3.0%, -3.5%
Cc1ccccc1C(=O)NC(=S)Nc1ccc(Oc2ccc(Cl)cc2)cc1
    -3.2%, 1.0, 0.1%, 0.5%
Cn1c(=O)c(C(=O)NCCO)c(O)c2ccccc21
    8.2%, ·, -3.2%, -2.0%

Some of the compounds tested, so the mix of outcomes need not match the whole.
